Source: PubChem (National Center for Advancing Translational Sciences (NCATS))
Lassa entry inh: qHTS for Inhibitors of binding or entry into cells for Lassa Virus | Lassa virus pseudotype entry inhibition, cell reporter; control for the full effect not named in the record | Potency, µM (series often up to 37.9 µM), inactives show at the top dose activity change, negative = inhibition, actives largely listed as inhibitors | 1.2% of 300,000 active | AID 540256, 2011; active means well fitted inhibition curve with a large enough effect; inconclusive means small, poorly fitted or top-dose-only effect, or effect the other way; inactive means flat fitted curve, though single readings scatter; tested in HEK293 cells; also: % is scaled to controls: 0 for no effect and ±100 for the full control effect; nearly all actives have a fitted effect of over 50% in size; luciferase read-out
NS1 function inh: qHTS Assay for Inhibitors of Influenza NS1 Protein Function; S. cerevisiae slowed by influenza A NS1, growth recovery by OD600; Potency, µM (series often up to 46.1 µM), for the others: top-dose activity, positive = more growth; 0.4% of 270,000 active; active means well fitted rising curve with a large enough effect; inconclusive means small, poorly fitted or top-dose-only effect; inactive means no such curve, though single readings can be large or run the other way; also: nearly all actives have a fitted effect of over 50% in size
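A cell-based growth assay was used: compounds that relieve NS1-induced slow growth of budding yeast raise OD600. Assay medium was yeast nitrogen base with ammonium sulphate and -URA supplement, pH 6.0, with 2% galactose.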
Cruzain noTriton: qHTS Assay for Promiscuous and Specific Inhibitors of Cruzain (without detergent). Cruzipain (Trypanosoma cruzi), P25779. purified cruzain, Z-FR-AMC fluorescence, no detergent. Potency, µM, for inactives: max response, negative = inhibition, actives largely listed as inhibitors. 2.3% of 200,000 active;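 also: plate controls were enzyme without inhibitor for no effect and buffer without enzyme for full effect; nearly all actives have a fitted effect of over 40% in size; top concentration of the series not given in the record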
Target sequence (P25779 123-467 limits assumed): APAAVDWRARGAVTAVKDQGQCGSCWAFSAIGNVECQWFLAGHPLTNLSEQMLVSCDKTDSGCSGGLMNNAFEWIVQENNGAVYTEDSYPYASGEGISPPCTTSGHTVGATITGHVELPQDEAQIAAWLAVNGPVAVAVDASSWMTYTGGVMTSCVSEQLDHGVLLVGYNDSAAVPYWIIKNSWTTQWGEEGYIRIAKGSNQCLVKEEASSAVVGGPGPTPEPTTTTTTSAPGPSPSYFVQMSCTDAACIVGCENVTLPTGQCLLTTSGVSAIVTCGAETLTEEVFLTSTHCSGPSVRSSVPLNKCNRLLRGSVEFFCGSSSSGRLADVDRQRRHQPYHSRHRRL
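Detergent-free condition (0.00005% Triton X-100) in acetate buffer pH 5.5 with DTT. 1.5 nM enzyme and compound were pre-mixed 15 min, then 2 uM Z-FR-AMC substrate added; reaction progress from fluorescence change between first and third reads (60 s).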
MARV entry inh: qHTS for inhibitors of binding or entry into cells for Marburg Virus | Marburg virus pseudotyped entry inhibition, cell reporter; control for the full effect not named in the record; about a third of the inactives were read at about 46 µM | Potency, µM (titrated, usually from 37.8 µM), inactives show top-dose activity change, negative = inhibition, most hits filed as inhibitors | 1.8% of 300,000 active | AID 540276, 2011; active = well fitted inhibition curve with a large enough effect; inconclusive = small, poorly fitted or top-dose-only effect, or effect the other way; inactive = flat fitted curve, though single readings scatter; tested in HEK293 cells; about a fifth of its hits are not listed in these tables; also: % is scaled to controls: 0 for no effect and ±100 for the full control effect; luciferase read-out
StopGo reporter: High Throughput Screening for Foot and Mouth Disease Virus Antivirals | human cells with a luciferase reporter of 2A StopGo recoding; control for the full effect not named in the record | Potency, µM (series often up to 57.9 µM), for the others: top-dose signal change, negative = less light | 1.2% of 410,000 active | AID 1159524, 2015; active = well fitted falling curve with a large enough effect; inconclusive = small, poorly fitted or top-dose-only effect; inactive = no such curve, though single readings can be large or run the other way; tested in HEK293T cells; also: % is scaled to controls: 0 for no effect and ±100 for the full control effect; nearly all actives have a fitted effect of over 45% in size; luciferase light after 4 h
SARS PLpro yeast: qHTS of Yeast-based Assay for SARS-CoV PLP; Potency, µM (series often up to 32.9 µM), for inactives: at the highest dose activity, positive = growth rescue; 0.19% of 330,000 active; S. cerevisiae expressing SARS-CoV PLpro, growth rescue; control for the full effect not named in the record; AID 485353, 2010; active means well fitted rising curve with a large enough effect; inconclusive means small, poorly fitted or top-dose-only effect; inactive means no such curve, though single readings can be large or run the other way; also: 0% is about no effect; nearly all actives have a fitted effect of over 55% in size; growth read by luminescence after 48 h
Cruzain inh Det: qHTS Assay for Promiscuous and Specific Inhibitors of Cruzain (with detergent); Cruzipain (Trypanosoma cruzi), P25779; purified cruzain, Z-FR-AMC fluorescence, 0.01% Triton; Potency, µM, inactives show max response, negative = inhibition, most hits filed as inhibitors; 0.43% of 200,000 active; AID 1478, 2009;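 also: plate controls were neutral wells for no effect and buffer without enzyme for full effect; nearly all actives have a fitted effect of over 40% in size; top concentration of the series not given in the record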
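Cruzain (1.5 nM) preincubated 15 min at RT with compound in 100 mM sodium acetate pH 5.5, 5 mM DTT, 0.01% Triton X-100. Reaction started with 2 uM Z-FR-AMC; AMC fluorescence (ex 360/em 450 nm) change over 60 s gave rate.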
RE007 growth inh: qHTS Assay for Inhibitors of the HIV-1 protein Vpr; S. pombe RE007 Vpr strain, BacTiter-Glo ATP luminescence, 24 h; control for the full effect not named in the record; Potency, µM (doses to about 92.2 µM), for the others: at the top dose activity change, negative = less growth; 0.21% of 360,000 active; AID 651644, 2012; active = well fitted falling curve with a large enough effect; inconclusive = small, poorly fitted or top-dose-only effect; inactive = no such curve, though single readings can be large or run the other way;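 also: % is scaled to controls: 0 for no effect and ±100 for the full control effect; nearly all actives have a fitted effect of over 50% in size; the assay follows cell death caused by Vpr and the record does not say whether a fall means rescue or toxicity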
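Fission yeast strain RE007, carrying one chromosomally integrated HIV-1 vpr copy, was seeded at OD 0.01 in PMG+AL medium with 23 nL pinned compound. After 24 h at 30 °C and 99% humidity, viability was read by BacTiter-Glo luminescence.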
Numbers without * were called inactive; ? = inconclusive; · = not tested or not shown; & = joins results of further samples; [ ] = remark or other dose. Unless noted, calls follow the shape of the dose curve; as a rule, active = well fitted curve in the direction sought with a large enough effect; inconclusive = small, poorly fitted or top-dose-only effect, or another doubt; inactive = no such curve, though single readings can be large; an effect the other way counts as inactive or inconclusive. Potency is read from the fitted curve at half-maximal effect.

SMILES	Lassa entry inh	NS1 function inh	Cruzain noTriton	MARV entry inh	StopGo reporter	SARS PLpro yeast	Cruzain inh Det	RE007 growth inh
Cc1cc(C)c(NC(=O)c2ccc(CNS(=O)(=O)c3cc(C(F)(F)F)ccc3Cl)cc2)c(C)c1	?	24%	-16%	?	-23%	6%	-3.9%	10%
Cc1cc(=O)oc2cc(O[C@@H]3O[C@H](CO)[C@H](O)[C@H](O)[C@H]3O)ccc12	-22%	0%	·	26%	2%	3%	·	-5%
Cc1ccc(S(=O)(=O)NCC(=O)N(CC(=O)NCc2ccco2)Cc2ccco2)cc1	-17%[46.1 µM]	0%	·	?	-10%	-1%	·	3%
c1ccc2c(c1)COC(CN1CCCCC1)OC2	·	5%	·	·	13%	1%	·	5%
CC(=O)Nc1ccc(NC(=O)c2ccccc2-n2cnnn2)cc1	-4%	·	·	-9%[46.1 µM]	-8%	-6%	·	-3%
CCc1nnc(NC(=O)c2c(O)c3c([nH]c2=O)CCCC3)s1	?	4%	-24%	14%&14%	36%[activator]	-16%	-3.2%	-10%
CC(C)N(CC(=O)Nc1ccc(Cl)cc1C(F)(F)F)C(=O)CCl	?	·	·	10µM*	16µM*	-3%	·	0%
CCN(CC(=O)Nc1ccc(NC(C)=O)cc1)C(=O)c1oc2ccccc2c1C	15%	·	·	0%	-7%	1%	·	0%
CCOc1ccc(NS(=O)(=O)c2cc(OCC(N)=O)c(C)cc2Cl)cc1	15%	14%	-14%	-30%	0%	-10%	-0.6%	-2%
O=C(O)C1CCN(S(=O)(=O)c2ccc(Oc3ccccc3)cc2)CC1	-2%	2%	3%	5%	-7%	-2%	7.2%	29%
O=C1CC(C(=O)N(c2cccc(F)c2)C(C(=O)NC2CCCC2)c2ccccn2)CS1 (stereo not given)	17%	-3%	7%	-6%	0%	-4%	2.8%	-3%
O=C(NCCc1cccs1)C1CC(c2cccc(F)c2)=NO1 (stereo not given)	·	-36%	·	·	-3%	-2%	·	9%
Cc1ccc(N2CC(NC(=O)c3cc4ccccc4o3)CC2=O)cc1C (stereo not given)	3%[46.1 µM]	·	-3%	·	-14%	·	-3.0%	·
CC1=C(C(=O)Nc2ccccc2)C(c2ccncc2)n2nc(SCc3ccccc3F)nc2N1 (stereo not given)	-5%[46.1 µM]	·	10%	29%[46.1 µM]	-10%	·	4.9%	·
O=C(CSc1nnc(CNC(=O)c2ccc(F)cc2)o1)NCCc1ccccc1	6%	-3%	·	6%	-24%	-2%	·	-13%
CC(=O)n1cc(/C=N/NC(=O)c2ccccc2O)c2ccccc21	·	5%	·	·	16%	2%	·	-4%
COc1ccc(C2=CC3=C(Br)C(=O)C(C)(OC(=O)c4cccs4)C(=O)C3=CO2)cc1 (stereo not given)	·	·	-9%	·	-11%	·	1.4%	?
CCOc1cc(C(=O)N(C)Cc2cc3cc(OC)ccc3[nH]c2=O)cc(OCC)c1OCC	9%	0%	-5%	10%&10%	0%	3%	-2.0%	18%
O=c1c2cc3c(cc2nc2sc(Nc4ccccc4)nn12)OCO3	16%[46.1 µM]	·	-2%	?	29%	·	-1.3%	·
CCS(=O)(=O)N1CCCC(C(=O)NCc2cccnc2)C1 (stereo not given)	6%	-4%	-2%	17%	1%	-1%	-0.5%	8%
CCO[C@@H]1OC(C(=O)N2CCCCCCC2)=C[C@H](c2csc3ccccc23)[C@H]1CCCO	·	3%	·	·	-10%	0%	·	-22%
COc1ccc(C(=O)Nc2ccc(Cl)c(S(=O)(=O)N3CCOCC3)c2)cc1	?	·	·	?	25µM*	1%	·	17%
COc1ccc(NC(=O)CCc2c(C)nc3c(c2C)c(=O)n(C)c(=O)n3C)cc1OC	11%[46.1 µM]	·	1%	-18%[46.1 µM]	-15%	·	-0.5%	·
CCOc1ccc(CN2CCN(C(=O)c3ccccc3)CC2)cc1	-2%	-9%	7%	?	?	2%	4.9%	90%
CC(=O)c1cccc(NS(=O)(=O)c2cc3c(cc2C)N(C(C)=O)CCO3)c1	?	12%	-1%	21%[46.1 µM]	55%&75%[activator]	8%	-2.2%	6%
Cc1ccc(C(C(=O)NC2CCCC2)N2CCCCC2)cc1 (stereo not given)	-1%	-7%	-2%	19%	-7%	11%	1.8%	-14%
CC(/C=C/c1ccccc1)=N\NC(=S)NC(C)C	?	16%	·	?	-25%	-2%	·	4%
CCCC1C(c2ccc(OC)cc2)C(C#N)(C#N)C2(C#N)CC1(N)NC2=O (stereo not given)	4%	0%	0%	-7%	-15%	-5%	2.5%	12%
CCN(C(=O)COC(=O)c1cc(S(=O)(=O)N2CCc3ccccc32)ccc1OC)C1CCS(=O)(=O)C1 (stereo not given)	11%	-7%	·	-25%[46.1 µM]	12%	0%	·	12%
Cc1cc(SCC(=O)NCC(c2cccs2)N2CCOCC2)c(C)cc1Br (stereo not given)	?	·	·	?	?	6%	·	-5%
COc1ccc(NC(=O)CSc2nnc(-c3nonc3NC(C)=O)n2-c2ccccc2)cc1	-9%[46.1 µM]	·	?	-20%[46.1 µM]	0%	·	-4.9%	·
CCOC(=O)Cc1csc(NC(=O)c2cccc(OC)c2)n1	10%	-7%	-6%	4%	-7%	-3%	1.4%	-27%
COc1ccc(C(=O)COC(=O)CCN=C2NS(=O)(=O)c3ccccc32)c(OC)c1	0%	·	·	27%	-4%	·	·	0%
Cc1cc(C(=O)O)ccc1-c1ccc(/C=C2\NC(=O)N(Cc3ccccc3Cl)C2=O)o1	-3%	·	·	0%[46.1 µM]	-7%	-1%	·	4%
COc1cccc(OC)c1Oc1ccc(C(F)(F)F)cn1	?	-10%[9.22 µM]	2%	16%	1%	-2%	0.8%	9%
COc1ccccc1Nc1nn2c(=O)c3ccc(C(=O)NCCC4=CCCCC4)cc3nc2s1	?	·	-6%	·	?	·	-2.9%	·
COc1ccc(Cl)cc1NC(=S)Nc1cccnc1	15%[46.1 µM]	0%	·	-20%[46.1 µM]	4%	-2%	·	-1%
CCn1ncc([N+](=O)[O-])c1C(=O)N1CCCC1	0%	-1%	0%	17%	-16%	0%	3.8%	21%
COC(=O)c1ccccc1CSc1nsc(/C=C/N(C)C)c1C#N	·	3%	·	·	0%	2%	·	11%
O=c1c(-c2ccc(F)cc2)[n+]([O-])c2ccccc2n1OCc1ccccn1	9%	1%	·	6%[46.1 µM]	-18%	1%	·	-15%
COC(=O)c1scc(C)c1NC(=O)C1CCCCC1	-8%	2%	-5%	-2%	6%	9%	7.2%	1%
CCOCCOC(=O)C1=C(C)N(C)C(=O)NC1c1ccccc1F (stereo not given)	8%	4%	1%	26%	-21%	14%	2.0%	6%
Cc1ccc(S(=O)(=O)N2CCN(C(=O)CSc3nc4ccccc4o3)C2)cc1	-3%	-9%	-2%	?	?	5%	5.7%	2%
NS(=O)(=O)c1ccc(NC(=O)/C(=C/c2ccncc2)NC(=O)c2ccccc2)cc1	20%[46.1 µM]	-1%	·	?	8%	-1%	·	10%
O=C(CC1c2ccccc2Oc2ccccc21)Nc1ccccc1C(F)(F)F	-26%	2%	-9%	-8%	-3%	6%	2.8%	-33%
CCc1c(C)nc(SCC(=O)Nc2ccc(Br)cc2)[nH]c1=O	·	4%	-17%	·	-12%	-1%	0.4%	8%
C=CCn1c(COc2ccc(CC)cc2)nnc1SC/C(O)=C(\C#N)c1nc2ccccc2[nH]1	-3%	1%	-1%	3%[46.1 µM]	-1%	27%	3.9%	-14%
CCOC(=O)/C(=N\Nc1cc(Cl)ccc1Cl)N1CCN(CC)CC1	0%	-17%	-13%	-14%	-17%	-12%	-6.5%	125%
COc1cc(C2C(C#N)=C(N)N(N(C)C)C3=C2C(=O)CC(C)(C)C3)ccc1O (stereo not given)	·	-1%	·	·	-14%	2%	·	-6%
CN(C(=O)COC(=O)CCc1c[nH]c2ccccc12)C(c1ccccc1)c1ccccc1	?	8.9µM*	-26%	?	?	16%	-6.7%	-12%
Cc1cc(NC(=O)c2cc(-c3ccccc3C)nc3ccccc23)no1	-21%	9%	-14%	-28%	-9%	16%	-6.7%	-6%
Cc1cc(C)nc(SC(C)C(=O)Nc2ccc(S(N)(=O)=O)cc2)n1 (stereo not given)	-4%	0%	5%	3%	-15%	-5%	4.4%	-8%
Cn1c(=O)c2c(nc(SCC(=O)Nc3ccccc3)n2Cc2ccccc2F)n(C)c1=O	5%[46.1 µM]	·	5%	13%[46.1 µM]	-3%	·	-1.1%	·
COc1cccc(C(=O)NCC(c2ccco2)N2CCOCC2)c1 (stereo not given)	10%	·	·	4%	-5%	1%	·	-9%
O=C(CSc1nnc(NC(=O)C2CC2)s1)Nc1ccccc1Cl	·	0%	·	?	21%	0%	·	29%
O=C1OC(c2ccccc2)=C/C1=C/N1CCCCC1	8%	-51%	-1%	?	0%	-13%	-8.9%	-10%
Nc1nonc1C(=O)N/N=C/c1cc2c(cc1Br)OCO2	·	1%	·	·	10%	-4%	·	1%
C[C@]12CCC3C(C[C@@H](O)[C@H]4C[C@@H](O)CC[C@]34C)C1CC[C@@H]2O (stereo not given in full)	17%[46.1 µM]	·	·	?	-2%	0%	·	12%
CSc1ccc(/C=C(/Sc2nnc(-c3ccccc3)o2)C(=O)O)cc1	-27%	·	·	-6%[46.1 µM]	11%	4%	·	1%
Cc1ncc([N+](=O)[O-])n1CC(=O)Nc1ccc(OC(F)(F)Cl)cc1	·	-1%	·	0%	?	-1%	·	-4%

Rows were taken by chance. Share with any hit: about 4.7%.
